# Source: PubChem BioAssay (several laboratories)
# Rce1 inhib – yeast Ras-converting enzyme inhibition; Q03530; hit rate 0.27% among 290,000; AID 2563; calls only; yeast membranes, quenched prenylated peptide cleavage fluorescence;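 active = fall in fluorescence gain of 50% or more versus controls, with final raw signal at or below 3038400; inconclusive = same 50% fall but final raw signal above 3038400; inactive = fall in fluorescence gain under 50%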;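 note: plate controls were neutral control wells for no effect and wells lacking membranes for full effect; tested at 10 µM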
# Target sequence (Q03530 whole entry, looked up): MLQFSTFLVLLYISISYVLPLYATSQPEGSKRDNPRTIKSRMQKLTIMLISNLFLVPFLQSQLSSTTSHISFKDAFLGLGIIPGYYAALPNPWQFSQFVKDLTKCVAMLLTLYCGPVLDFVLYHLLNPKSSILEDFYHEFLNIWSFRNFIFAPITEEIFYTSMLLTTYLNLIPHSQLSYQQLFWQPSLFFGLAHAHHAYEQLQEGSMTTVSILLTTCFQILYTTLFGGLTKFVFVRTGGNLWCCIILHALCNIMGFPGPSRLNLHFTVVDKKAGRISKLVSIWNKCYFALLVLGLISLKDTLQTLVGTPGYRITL
# UUG fidelity – alters start codon recognition fidelity in yeast; S. cerevisiae UUG-firefly luciferase reporter, luminescence/redox ratio; activity score, % at 18.7 µM; hit rate 0.13% among 350,000; AID 602363;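 active = replicate mean at a twofold rise or more, about +100% in these data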;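 note: firefly luciferase made from a UUG start codon reports start codon fidelity; reporter light over untreated wells divided by growth signal over untreated wells; some hits fall short of that in this replicate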
# PABP FP inh – blocks human PABP binding to poly(A) RNA; P11940; fluorescence polarization; inhibition, % at 35 µM; hit rate 1% among 290,000; AID 2014;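 active = 50% or more with normal probe brightness, or confirmed in later tests; inconclusive = above 50% with abnormal brightness, or retests that disagree; inactive = below 50% or failed in later tests; about a fifth of its hits are not listed in these tables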;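 note: calls also rest on retests at 20 µM and on dose response follow-up; controls were probe without protein and protein plus probe with vehicle; some compounds called inactive have numbers as strong as hits; many hits fall short of the cut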
# Target sequence (P11940 whole entry, looked up): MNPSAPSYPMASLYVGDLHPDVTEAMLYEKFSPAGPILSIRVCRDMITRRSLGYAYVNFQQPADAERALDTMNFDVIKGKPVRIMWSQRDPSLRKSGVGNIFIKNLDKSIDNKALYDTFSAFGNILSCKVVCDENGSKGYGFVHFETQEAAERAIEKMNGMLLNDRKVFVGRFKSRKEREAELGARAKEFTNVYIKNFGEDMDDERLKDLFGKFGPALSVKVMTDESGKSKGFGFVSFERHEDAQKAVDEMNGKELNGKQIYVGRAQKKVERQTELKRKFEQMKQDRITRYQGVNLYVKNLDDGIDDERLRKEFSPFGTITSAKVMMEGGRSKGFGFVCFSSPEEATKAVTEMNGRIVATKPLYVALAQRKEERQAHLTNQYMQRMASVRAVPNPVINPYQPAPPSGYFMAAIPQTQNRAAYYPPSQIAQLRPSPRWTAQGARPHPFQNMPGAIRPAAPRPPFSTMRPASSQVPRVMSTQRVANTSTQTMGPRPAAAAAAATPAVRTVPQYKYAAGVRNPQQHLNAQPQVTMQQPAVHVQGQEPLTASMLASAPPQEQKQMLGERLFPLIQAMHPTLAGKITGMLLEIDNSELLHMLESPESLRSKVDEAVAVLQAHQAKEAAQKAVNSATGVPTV
# MT1-MMP act inh – inhibitors of human MT1-MMP activation; hit rate 0.061% among 360,000; HT1080 RFP-PRO-GFP cells, GFP/RFP ratio fluorescence, overnight; percent of plate control window, DMSO zero; GFP/RFP ratio change, % at 20 µM;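 active = GFP/RFP ratio change of at least 30% with cell ATP level not reduced by more than half and red fluorescence within 50% of control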; note: strong numbers were not always called active
#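 Assay system: HT1080 cells carrying an RFP-PRO-GFP reporter | Dosing: Single dose of 20 µM compound, 1% DMSO final | Incubation: Cells overnight before dosing, compound overnight, 37 °C, 5% CO2 | Evaluation: GFP/RFP fluorescence ratio | Control set: DMSO and RFP-L50D-GFP cell wells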
# eIF4H FP inh – inhibitors of RNA binding by human eIF4H; Q15056; eIF4H fluorescence polarization binding assay; inhibition, % at 35 µM; hit rate 0.94% among 290,000;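 active = 50% or more with normal probe brightness, or confirmed in later tests; inconclusive = above 50% with abnormal brightness, or retests that disagree; inactive = below 50% or failed in later tests; about a fifth of its hits are not listed in these tables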;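 note: calls also rest on retests at 20 µM and on dose response follow-up; 0% = protein and probe with vehicle and 100% = probe without protein; strong numbers were not always called active; many hits fall short of the cut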
# HIV Env fusion – inhibitors of HIV Env-mediated cell fusion | hit rate 1.1% among 360,000 | inhibition, % at 12.3 µM | AID 651610 | HeLa-JRFL Env/CEM21 cell fusion, luciferase;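 active = mean replicate inhibition score of at least 50 and every replicate individually at or above 50; inconclusive = only one of the two criteria met; inactive = mean below 50 and not all replicates reaching 50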;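 note: 0% = plate neutral controls and 100% = maraviroc near 300 nM; one replicate is shown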
# CSC inhib – blocks cancer stem cells; cancer stem cell-like cells viability, luminescence; inhibition, % at 7.5 µM; hit rate 1.1% among 300,000; AID 2717;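 active = mean at 75% or more and at least half the replicates too; inconclusive = mean and replicates disagree; tested in HMLE shEcad cells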;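 note: 0% = median of negative and 100% = median of positive control wells; the first replicate is given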
# eIF4H FP inh retest – further read-out of eIF4H FP inh, marked with its call; inhibition, %; compound at 20 µM; confirmation average;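 mean of two retest wells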
# PABP FP inh retest – further read-out of PABP FP inh, marked with its call; inhibition, %; compound at 20 µM; confirmation repeats;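 mean of two retest wells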
# MT1-MMP act inh RFP – also measured in MT1-MMP act inh; calls as there; RFP signal change, %; measured here: RFP expression control read;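 0 = vehicle wells; hits needed this value within 50% of zero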
# Numbers without * were called inactive; i = inactive; ? = inconclusive; nt = no result given. An excerpt; count on the stated rates, not on these rows.
SMILES,Rce1 inhib,UUG fidelity,PABP FP inh,MT1-MMP act inh,MT1-MMP act inh RFP,eIF4H FP inh,HIV Env fusion,CSC inhib,others
O=S1(=O)CCOCCCN1Cc1cccc(C(F)(F)F)c1,i,-5,-4,4,0,9,-2,1,
CSc1nc(Oc2ccc(F)cc2F)cc(C(F)(F)F)n1,i,-3,-6,1,-1,-4,nt,-6,
O=C(Oc1ccccc1)N(c1ccccc1)c1ccccc1,i,-11,2,2,-1,1,10,-3,
CC1CCc2cc(F)ccc2N1C(=O)CSc1nnc(-c2cccs2)n1C (configuration not stated),i,-10,-1,0,-2,2,-89,-16,
CC(=O)Nc1ccc(OC(=O)c2cc3ccccc3oc2=O)cc1,i,nt,8,-1,1,-1,nt,9,
COc1ccccc1N1CCN(C2CC(=O)N(C)C2=O)CC1 (configuration not stated),i,nt,?,0,1,-9,15,-1,
CCc1cccc(NC(=S)N(CCN(C)C)C(C)c2ccncc2)c1 (configuration not stated),i,-22,-6,6,7,-6,3,-12,
CC1(C)CC(=O)c2c(nc(SCC(=O)Nc3nsc(-c4ccccc4)n3)c(C#N)c2-c2ccccc2)C1,i,-10,-8,-6,-11,-7,nt,32,
CCc1nc(N2CCCC2C(=O)O)c2oc3ccccc3c2n1 (configuration not stated),i,-2,-2,-2,-2,-2,nt,-17,
C/C(=N\N=C(/N)SC1CC(=O)N(c2cccc(Cl)c2)C1=O)c1cccs1 (configuration not stated),i,-16,-9,7,2,-11,nt,18,
Clc1cccc(OCCn2ccnc2)c1,i,-3,32,2,1,-1,2,4,
COc1ccc(/C=N/Nc2nonc2N)c(OC)c1,i,nt,0,3,3,6,65*,0,
CC(C)NC(=O)c1ccccc1NC(=O)Cc1ccc([N+](=O)[O-])cc1,i,7,-2,3,5,-10,4,7,
CCC(NC(=O)Cc1c(C)c2c(cc(C)c3c(C)c(C)oc32)oc1=O)C(=O)O (configuration not stated),i,nt,10,0,-2,-3,3,-8,
COc1ccccc1OCC(=O)NCC1CCCN(Cc2cnn(C(C)C)c2)C1 (configuration not stated),nt,-17,-15,0,0,-4,8,-8,
COc1ccc(NC2CCCN(C(=O)CCN3CCOCC3)C2)cc1 (configuration not stated),i,-1,-5,-3,2,3,1,3,
CCN1CCN(C(=O)c2oc(=O)c3ccccc3c2-c2ccc(C)cc2)CC1,i,4,-14,1,10,-10,-2,-12,
O=C(O)c1cc(N/N=C2/CC(c3ccccc3)Oc3ccccc32)ccc1Cl (configuration not stated),i,nt,-5,-1,5,-2,-56,3,
O=C(CSc1nnc(-c2cccnc2)n1Cc1ccco1)NCc1ccc2c(c1)OCO2,i,-15,-1,-1,3,-3,-11,5,
CCn1ncc(Br)c1C(=O)Nc1ccc2c(c1)OCCO2,i,nt,-3,-1,1,3,-5,4,
O=C(Cn1nnc2ccccc21)OCC(=O)c1ccc(Cl)c(Cl)c1,nt,-8,-8,-1,4,0,nt,13,
CC1(C)Cc2cccc(OCC(=O)N3CCN(S(=O)(=O)c4ccc(F)cc4)CC3)c2O1,i,-8,6,-4,-3,34,-56,2,
COc1ccc([N+](=O)[O-])cc1NC(=O)CCc1ccccc1,i,nt,0,3,-1,-3,15,7,
CCN(CC(O)CON=C1c2ccccc2-c2ccccc21)S(=O)(=O)c1ccc(C)cc1 (configuration not stated),i,-9,1.5*,-19,-23,80*,79*,46,eIF4H FP inh retest=84*;PABP FP inh retest=80*
O=C(Nc1cc(C(F)(F)F)ccc1-n1cnc2ccccc21)c1ccccc1,i,nt,-11,0,-2,-1,12,nt,
COc1cccc(-c2[nH]nc3c2C(c2ccc(C)o2)C(C#N)=C(N)O3)c1 (configuration not stated),i,nt,29,nt,nt,32,31,3,
CCN(CC(=O)NCc1cccs1)C(=O)/C=C/c1ccc(OC)c(OC)c1,i,-14,nt,7,-1,nt,-4,-2,
CCCc1cc(=O)[nH]c(SCC(=O)Nc2nonc2C)n1,i,0,1,-3,-1,-3,-11,-3,
Cc1cc(S(=O)(=O)N2CCOCC2)ccc1OCC(=O)N1CCC(C)CC1,i,-7,-2,-2,-2,-9,-7,-20,
CC(=O)C1=C(O)C(=O)N(Cc2ccccc2)C1c1ccc(F)cc1 (configuration not stated),i,2,7,-2,0,8,16,-10,
O=C(O)c1cc(Br)ccc1NN=C1CCCCC1,i,nt,49,2,7,8,2,3,
CCOC(=O)C1(Cc2ccccc2)CCN(Cc2cccn2-c2nccs2)CC1,i,nt,-3,-5,-2,-9,24,0,
Cc1ccc(N=C2NC(=O)/C(=C/c3cn(C)c4ccccc34)S2)cc1C,nt,nt,-9,-117,0,?,-232,47,
COc1ccccc1N(CC(=O)Nc1c(C)cccc1C)S(C)(=O)=O,i,nt,14,8,4,1,nt,1,
Cc1sc2ncnc(NC3CCN(Cc4ccccc4)CC3)c2c1C,i,nt,-9,-6,-26,-1,21,22,
CNC(=S)N/N=C/c1ccc2c(c1)OCCO2,i,nt,10,1,7,-3,-9,-8,
COc1ccc(/C=C/C(=O)Nc2ccc(OC)cc2[N+](=O)[O-])cc1,i,nt,-2,-3,0,6,-48,-6,
Cc1cc(C)c(C#N)c(OCC(=O)Nc2ccccc2)n1,i,-10,3,-3,1,1,nt,-5,
CN(C)CCn1c2ccccc2c2nc3ccc([N+](=O)[O-])cc3cc21,i,-8,-22,-9,1,-7,37,?,
O=C(OCc1cc2ccccc2[nH]c1=O)c1ccccc1,i,-6,5,5,4,1,nt,-7,
O=c1[nH]c(SCCN2CCOCC2)nc(O)c1-c1ccccc1,i,21,0,5,2,-1,3,-2,
CCc1sc(C(=O)N2CCN(c3ccc(F)cc3)CC2)cc1C,nt,11,2,5,-3,-6,21,8,
O=C(CCCCCN1C(=O)CCC1=O)Nc1ccc2c(c1)OCO2,i,2,-5,-1,2,-6,nt,-15,
Cc1ccc(NNS(=O)(=O)c2ccc(C)cc2)cc1,i,-24,2,1,3,-11,-27,5,
Cc1ccc(NC(=O)CN(C)C(=O)c2ccc(S(=O)(=O)N(C)c3ccccc3)cc2)cc1,i,nt,-17,5,2,0,0,12,
Cc1ccc(C(=O)OCN2C(=O)c3ccccc3C2=O)o1,i,-6,nt,4,3,nt,-43,19,
CCCCNS(=O)(=O)c1ccc(NC(=O)C2CCCO2)cc1 (configuration not stated),i,-16,10,3,-3,-4,26,16,
CC(C)Cc1ccc(CN2C(C)C(=O)N(Cc3cn(Cc4ccco4)nn3)CCS2(=O)=O)cc1 (configuration not stated),nt,-2,nt,-9,2,nt,23,nt,
CCCC(=O)Nc1nc2ccc(OC)cc2s1,i,-14,9,1,-7,-4,-77,9,
Cc1ccc(C(=O)c2cc([N+](=O)[O-])ccc2N2CC(C)OC(C)C2)cc1 (configuration not stated),i,11,0,1,-12,6,-1,49,
# New compounds follow
SMILES,Rce1 inhib,UUG fidelity,PABP FP inh,MT1-MMP act inh,MT1-MMP act inh RFP,eIF4H FP inh,HIV Env fusion,CSC inhib,others
O=C(Cn1nnc2ccccc21)c1ccc(Cl)cc1,i,-8,7,0,2,-2,-34,-19,
O=C(Nc1cc(Cl)ccc1O)C1CCCO1 (configuration not stated),i,-1,-15,4,9,-3,nt,nt,
Cc1ccc(S(=O)(=O)N(C)C)cc1NC(=O)COC(=O)C1CCN(S(=O)(=O)c2cccs2)CC1,i,nt,nt,1,2,nt,-9,1,
Cc1cccc(Nc2nnc(SCC(=O)c3ccc(O)cc3O)s2)c1,i,-7,8,-2,1,6,-1,-9,
O=C(CCSc1ccccc1)NCCSCc1ccccc1,i,nt,10,6,10,1,-26,7,
COc1ccnc(CSC(N)=Nc2ccccc2C(F)(F)F)c1,i,nt,-1,0,-6,-2,8,-14,
COc1ccc(N2CCN(C(=O)Nc3ccccc3C)CC2)cc1,i,1,-9,-1,4,5,0,-4,
CC(C)(C)c1ccc(CN2C3=NCCCN3c3ccccc32)cc1,i,5,-1,-9,-2,-5,3,31,
COC(=O)C1=C(C(=O)OC)N2C=CC=CC2(C)C(C(=O)OC)=C1C(=O)OC (configuration not stated),i,-1,-1,0,-1,0,nt,-7,
CC(C)C1Oc2ccccc2N(CC(=O)NCCCN2C(C)CCCC2C)C1=O (configuration not stated),i,nt,-21,-2,0,-5,nt,-6,
O=C(Nc1ccc2c(c1)OCO2)c1cc(-c2cccnc2)nc2ccccc12,i,nt,-2,1,8,4,9,0,
CN(Cc1ccc(Cl)cc1Cl)C(=O)C1CSC2(C)CCC(=O)N12 (configuration not stated),nt,-8,nt,9,-7,nt,-7,nt,
CCOC(=O)c1cc2c(=O)n3ccccc3nc2n(CC(C)C)c1=NC(=O)c1ccco1,?,-8,12,-1,4,16,31,-9,
CCOc1ccc(C(=O)OCC(=O)NCCNC(=O)COC(=O)c2ccc(OCC)cc2)cc1,i,-13,0,5,3,-2,-6,-10,
COC(=O)CC1C(=O)NCCN1C(=S)NC(=O)C(c1ccccc1)c1ccccc1 (configuration not stated),i,nt,-4,4,4,-5,45,-1,
O=c1[nH]cnc2sc3c(c12)CCCCC3,i,nt,-17,-2,-7,3,19,-7,
CCOc1ccc(C(CC(=O)O)NC(=O)c2ccco2)cc1OC (configuration not stated),i,-21,7,5,9,7,nt,nt,
CCN1CCc2nc(NC(=O)c3ccccc3)sc2C1,i,-55,12,-15,2,5,-37,-4,
CC1=C(C(=O)OCc2ccccc2)C(c2ccccc2Br)NC(=O)N1 (configuration not stated),i,-8,5,0,-13,5,6,0,
O=C(CCCC(=O)N1CCCc2ccccc21)N1CCCc2ccccc21,i,10,8,-2,-5,-7,-67,-1,

# Ordered by SMILES length (smallest number first): part of the list above.
SMILES,Rce1 inhib,UUG fidelity,PABP FP inh,MT1-MMP act inh,MT1-MMP act inh RFP,eIF4H FP inh,HIV Env fusion,CSC inhib,others
O=c1[nH]cnc2sc3c(c12)CCCCC3,i,nt,-17,-2,-7,3,19,-7,
CCN1CCc2nc(NC(=O)c3ccccc3)sc2C1,i,-55,12,-15,2,5,-37,-4,
CC1=C(C(=O)OCc2ccccc2)C(c2ccccc2Br)NC(=O)N1 (configuration not stated),i,-8,5,0,-13,5,6,0,
CCOC(=O)c1cc2c(=O)n3ccccc3nc2n(CC(C)C)c1=NC(=O)c1ccco1,?,-8,12,-1,4,16,31,-9,

# (next part)
SMILES,Rce1 inhib,UUG fidelity,PABP FP inh,MT1-MMP act inh,MT1-MMP act inh RFP,eIF4H FP inh,HIV Env fusion,CSC inhib,others
CCN(C(=O)CSc1nnc(-c2ccco2)n1Cc1ccccc1)C1CCS(=O)(=O)C1 (configuration not stated),nt,5,nt,0,-4,nt,5,nt,
O=C1CCCC/C1=C/Nc1ccc(S(=O)(=O)Nc2ncccn2)cc1,i,nt,13,-2,4,9,nt,-26,
COc1nccc(C(F)(F)F)c1C(=O)NC(=O)Nc1c(C)cccc1C,i,-5,-6,1,-1,-10,-71,-9,
Cc1cc(Cl)ccc1OCCCC(=O)N1CCCCC1,i,-7,-6,-2,4,-7,nt,14,
CCOc1cc(C2c3c(oc4cc(C)c(Cl)cc4c3=O)C(=O)N2Cc2ccco2)ccc1O (configuration not stated),i,-19,-12,-15,-3,-8,-41,2,
O=C(Nc1ccc(NC(=O)c2ccco2)nc1)c1cccnc1,i,-33,-4,4,-12,17,-27,nt,
Cn1c(=O)c2cnc(-c3ccc(C(F)(F)F)cc3)nc2n(C)c1=O,i,nt,-5,-1,3,-8,-10,-24,
CN(C)CC(O)COc1ccc(-c2ccc(C#N)cc2)cc1 (configuration not stated),i,nt,-9,nt,nt,-3,nt,5,
